Compound activity (PubChem BioAssay)
Mtb MbtI inh: MbtI salicylate synthase inhibitors, primary screen, biochemical, fluorescence intensity | inhibition, %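 (about 17 µg/mL by stock and volumes)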 | actives 0.89% (n = 100,000) | P9WFX0 | purified MbtI enzyme, fluorescence intensity read-out;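 active = above 50% in both replicates, above 80% if mildly self-fluorescent; inactive = the rest, strongly fluorescent compounds included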;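 note: 0% = mean of negative and 100% = mean of positive controls; one replicate is shown; some compounds called inactive have numbers as strong as hits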
Target sequence (P9WFX0 whole entry, looked up): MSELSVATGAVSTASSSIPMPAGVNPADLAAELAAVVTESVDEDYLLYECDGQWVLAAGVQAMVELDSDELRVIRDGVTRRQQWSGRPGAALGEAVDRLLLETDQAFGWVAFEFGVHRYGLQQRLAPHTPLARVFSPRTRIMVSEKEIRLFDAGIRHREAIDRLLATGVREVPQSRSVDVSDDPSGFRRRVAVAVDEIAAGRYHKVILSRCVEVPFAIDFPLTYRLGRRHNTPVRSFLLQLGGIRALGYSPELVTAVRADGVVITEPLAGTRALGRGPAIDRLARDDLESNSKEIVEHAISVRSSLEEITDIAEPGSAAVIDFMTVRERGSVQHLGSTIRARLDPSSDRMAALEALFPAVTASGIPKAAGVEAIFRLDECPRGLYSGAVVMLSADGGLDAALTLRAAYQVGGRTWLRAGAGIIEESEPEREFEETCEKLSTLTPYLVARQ
Mtb MenB inh: M. tuberculosis MenB inhibitors, primary screen, biochemical, absorbance; actives 0.43% (n = 100,000); MenB enzyme assay, absorbance read-out; some hits fall short of the stated cut; inhibition, %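 (about 12 µg/mL by stock and volumes)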;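 active = mean of two replicates above 30%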;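 note: 0% = no compound and 100% = wells with inactive enzyme; the first replicate is given; strong numbers were not always called active; inactives centre near -10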
Target sequence (P9WNP5 whole entry, looked up): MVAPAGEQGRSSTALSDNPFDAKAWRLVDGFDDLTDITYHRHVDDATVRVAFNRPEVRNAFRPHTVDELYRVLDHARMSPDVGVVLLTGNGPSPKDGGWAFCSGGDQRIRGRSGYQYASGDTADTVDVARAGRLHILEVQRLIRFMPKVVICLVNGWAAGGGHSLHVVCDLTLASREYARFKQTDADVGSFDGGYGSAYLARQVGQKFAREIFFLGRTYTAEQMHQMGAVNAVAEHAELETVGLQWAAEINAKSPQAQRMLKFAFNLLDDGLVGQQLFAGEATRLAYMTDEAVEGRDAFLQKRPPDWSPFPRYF
Polio RdRp inh: poliovirus RdRp elongation inhibitors, primary screen, biochemical, fluorescence polarization, total intensity | AID 588519, 2011 | actives 0.66% (n = 150,000) | poliovirus polymerase elongation; stronger effect = lower value | % elongation, % (compound at 16.7 µg/mL); in the data active = % elongation below about 90%; note: some results filed as inactive read as strong as hits
Polio RdRp inh intensity: also measured in Polio RdRp inh; calls as there; % elongation; measured here: total intensity read-out; formula for this scale not given here;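 total fluorescence in place of polarization; lower means less elongation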
Numbers without * were called inactive; x = no result given; & = joins results of further samples.

Short keys – A = Mtb MbtI inh; B = Mtb MenB inh; C = Polio RdRp inh; D = Polio RdRp inh intensity
CCN(CC)S(=O)(=O)c1ccc(C(=O)NC2=NCCS2)cc1
  A: -5.9 | B: 1.5 | C: 100.0 | D: 102.0

COc1ccc2c(CC(=O)N[C@@H](Cc3c[nH]c4ccccc34)C(=O)O)coc2c1
  A: -7.0 | B: -19.4 | C: 108.0 | D: 122.0

CCOc1ccc(C(=O)COC(=O)C23CCC(=O)N2c2ccccc2C(=O)N3C)cc1 (stereo not drawn)
  A: 12.2 | B: -9.0 | C: 110.0 | D: 118.0

c1ccc2c(CN3CCN(Cc4c[nH]c5ccccc45)CC3)c[nH]c2c1
  A: 4.8 | B: 4.0 | C: 103.0 | D: 100.0

Cc1cccc(-c2nc3c(cnn3-c3ccccc3)c(=O)n2-c2ccccc2)c1
  A: 8.2 | B: 1.5 | C: 98.0 | D: 100.0

COc1ccc2nc(NCc3cccnc3)sc2c1
  A: 6.9 | B: 1.6 | C: 99.0 | D: 97.0

Cc1cc(C)c(N2CCCC2C(=O)Nc2cccc(C(F)(F)F)c2)c(C)c1 (stereo not drawn)
  A: -13.2 | B: -10.5 | C: 100.0 | D: 104.0

N#CC(C(=O)c1ccco1)c1nc2ccccc2[nH]1 (stereo not drawn)
  A: 98.3* | B: -7.6 | C: 106.0 | D: 116.0

Cc1ccc(NC(=O)CN(C)C(=O)CSc2nc3ccc(Cl)cc3o2)cc1
  A: -8.1 | B: -0.1 | C: 102.0 | D: 99.0

O=c1c2ccccc2[nH]c(=S)n1-c1cccc(C(F)(F)F)c1
  A: -2.5 | B: -3.6 | C: 99.0 | D: 105.0

CCCC(C)C(=O)N1CC(C)CC(C)C1 (stereo not drawn)
  A: -9.8 | B: -24.0 | C: 101.0 | D: 102.0

O=C(CSc1nnc(-c2ccccc2F)n1Cc1ccccc1)Nc1cccc2nsnc12
  A: -3.8 | B: -23.2 | C: 99.0 | D: 104.0

CC1CCN(C(=O)CNC(=O)c2ccc(F)cc2)CC1
  A: 0.7 | B: -29.3 | C: 103.0 | D: 107.0

COc1ccc2nc(NC(=O)c3ccoc3C)sc2c1
  A: -53.7 | B: -34.7 | C: 99.0 | D: 100.0

Cc1cc(C)cc(NC(=S)N(CCN(C)C)C2CCN(C(C)C)CC2)c1
  A: -11.1 | B: -1.3 | C: 102.0 | D: 109.0

CN(c1ccc(OCC(=O)NCc2ccncc2)cc1)S(=O)(=O)c1cccs1
  A: 6.2 | B: -13.5 | C: 98.0 | D: 102.0

O=C(CSc1nnc(-c2ccc(Cl)cc2)o1)N1CCc2ccccc2C1
  A: 30.9 | B: -22.6 | C: 97.0 | D: 89.0

Cc1noc(C)c1-c1nnc(-c2cccc(Cl)c2)o1
  A: -15.2 | B: -16.1 | C: 99.0 | D: 98.0

CN(C(=O)c1noc2c1COc1ccccc1-2)c1cccc(C(F)(F)F)c1
  A: -9.7 | B: 2.2 | C: 106.0 | D: 109.0

CCOC(=O)c1cnc2ccccn2c1=O
  A: 104.7 | B: 11.4 | C: 103.0 | D: 94.0

O=C(O)c1cccc(S(=O)(=O)Nc2ccccc2Cl)c1
  A: -25.6 | B: 2.3 | C: 97.0 | D: 98.0

COc1ccc2[nH]c3c(=O)n(CCCC(=O)NCc4ccco4)c(=S)[nH]c3c2c1
  A: -2.0 | B: -16.2 | C: 102.0 | D: 102.0

CCOc1ccc([C@H]2[C@@H]3CN(Cc4ccccc4)CC=C3C(C#N)=C(N)C2(C#N)C#N)cc1
  A: x | B: -30.8 | C: 113.0 | D: 124.0

Cc1nnc(N2CCN(c3ccccc3)CC2)c2c1nnn2Cc1ccccc1
  A: 15.4 | B: 17.6 | C: 99.0 | D: 102.0

CCOC(=O)N1CCC(NS(=O)(=O)c2ccc(C)cc2)CC1
  A: 7.7 | B: -9.1 | C: 103.0 | D: 102.0

COC(=O)c1sccc1N1C(=O)Nc2ccccc2N1O
  A: 1.9 | B: 5.3 | C: 103.0 | D: 108.0

O=C(NS(=O)(=O)c1ccc(Cl)cc1)c1ccccc1
  A: -7.1 | B: 3.3 | C: 102.0 | D: 108.0

CCn1c(CN(C)C2CCCCC2)nc2ccccc21
  A: -1.5 | B: -31.6 | C: 103.0 | D: 104.0

CCn1c(Cc2ccccc2)nnc1SCC(=O)c1ccc(S(C)(=O)=O)cc1
  A: -13.7 | B: -15.0 | C: 101.0 | D: 110.0

CCn1cc(Br)c(C(=O)NC(C)c2ccccc2)n1 (stereo not drawn)
  A: -12.6 | B: -6.5 | C: 102.0 | D: 101.0

CCCC(=O)Nc1ccc(-c2nc3cc4ccccc4cc3[nH]2)cc1
  A: 63.7 | B: -38.6 | C: 103.0 | D: 109.0

O=S(=O)(c1ccc(F)cc1)N1CCc2ccccc2C1
  A: -2.6 | B: -0.5 | C: 97.0 | D: 99.0

COc1ccc(O)c(C(=O)c2cnc(/N=C(\N)Nc3cc(Cl)cc(Cl)c3)nc2)c1
  A: 128.3 | B: 4.5 | C: 100.0 | D: 103.0

O=C(Oc1ccc(Cl)cc1)c1ccc2snnc2c1
  A: -4.8 | B: -17.3 | C: 100.0 | D: 103.0

Cc1cc(OCC(=O)N(Cc2ccc(Cl)cc2)Cc2ccco2)cc(C)c1Cl
  A: 6.7 | B: -91.7 | C: 106.0 | D: 104.0

CCOC(=O)n1c(=O)oc2cc(Br)ccc21
  A: 0.3 | B: -13.2 | C: 98.0 | D: 100.0

O=C1c2ccccc2C(Nc2ccccc2)N1Cc1ccccc1 (stereo not drawn)
  A: -13.0 | B: -20.4 | C: 101.0 | D: 97.0

CCN(CC)CCCOc1c(OC)cccc1OC
  A: -1.9 | B: -25.8 | C: 98.0 | D: 101.0

O=S(=O)(CC(O)CS(=O)(=O)c1ccc(Cl)cc1)c1ccccc1 (stereo not drawn)
  A: 0.9 | B: -6.3 | C: 103.0 | D: 97.0

CN1CCN(CCC=C2c3ccccc3Sc3ccc(S(=O)(=O)N(C)C)cc32)CC1
  A: -21.0 | B: 9.7 | C: 100.0 | D: 102.0

Reformatted field by field: 4 of the compounds above
> O=C(O)c1cccc(S(=O)(=O)Nc2ccccc2Cl)c1
  Mtb MbtI inh = -25.6 | Mtb MenB inh = 2.3 | Polio RdRp inh = 97.0 | Polio RdRp inh intensity = 98.0
> COc1ccc2[nH]c3c(=O)n(CCCC(=O)NCc4ccco4)c(=S)[nH]c3c2c1
  Mtb MbtI inh = -2.0 | Mtb MenB inh = -16.2 | Polio RdRp inh = 102.0 | Polio RdRp inh intensity = 102.0
> CCOc1ccc([C@H]2[C@@H]3CN(Cc4ccccc4)CC=C3C(C#N)=C(N)C2(C#N)C#N)cc1
  Mtb MbtI inh = x | Mtb MenB inh = -30.8 | Polio RdRp inh = 113.0 | Polio RdRp inh intensity = 124.0
> Cc1nnc(N2CCN(c3ccccc3)CC2)c2c1nnn2Cc1ccccc1
  Mtb MbtI inh = 15.4 | Mtb MenB inh = 17.6 | Polio RdRp inh = 99.0 | Polio RdRp inh intensity = 102.0

Later entries
Short keys – A = Mtb MbtI inh; B = Mtb MenB inh; C = Polio RdRp inh; D = Polio RdRp inh intensity
CSc1nc(O)cc(=O)[nH]1
  A: -5.9 | B: -149.9 | C: 99.0 | D: 105.0

CCN(C(=O)C1CCCCC1)c1ccccc1C
  A: 0.9 | B: -10.4 | C: 100.0 | D: 101.0

OCCNCCSc1nc2ccccc2s1
  A: 36.5 | B: -12.5 | C: 99.0 | D: 106.0

COc1ccc(Nc2nnc(SCC3CCCO3)s2)cc1 (stereo not drawn)
  A: 2.7 | B: -20.8 | C: 101.0 | D: 105.0

CC(C)(C)C(=O)COC(=O)c1ccccc1Cl
  A: 1.7 | B: 11.0 | C: 101.0 | D: 96.0

Cc1ccc(N=C2N=C(N)c3ccccc32)cc1
  A: 101.3 | B: -80.8 | C: 100.0 | D: 98.0

COc1cc2oc(=O)cc(C)c2cc1OC
  A: 97.5 | B: 18.8 | C: 101.0 | D: 104.0

CCN(CC)C(=S)NC1CCCCC1
  A: x | B: 2.4 | C: 103.0 | D: 97.0

O=C1OC2(CCCC2)OC(=O)C1=CNc1ccccc1
  A: 78.8 | B: -9.0 | C: 104.0 | D: 101.0

O=C(c1nn2c(C(F)(F)F)cc(-c3cccs3)nc2c1Cl)N1CCCc2ccccc21
  A: x | B: -23.1 | C: 105.0 | D: 106.0

CC(C)(C)NC(=S)Nc1cccc(C(F)(F)F)c1
  A: 18.3 | B: -7.1 | C: 101.0 | D: 101.0

CCCNCC(=O)Nc1ccc2c(c1)OCO2
  A: 3.6 | B: -20.7 | C: 97.0 | D: 97.0

COC(=O)c1c(NC(=O)COc2ncnc3c2cnn3-c2ccccc2)sc2c1CCC2
  A: -12.9 | B: -25.7 | C: 109.0 | D: 104.0

CS(=O)(=O)c1ccc(NC(=O)CSCc2ccc(F)cc2)cc1
  A: 4.2 | B: 9.1 | C: 103.0 | D: 95.0

COC(=O)[C@@H](N)CSC/C=C(\C)CC/C=C(\C)CCC=C(C)C
  A: -10.1 | B: -8.5 | C: 103.0&101.0 | D: 102.0&101.0

COC(=O)C1C(=O)C2=C(CC1C)Nc1ccccc1NC2c1c[nH]c2ccccc12 (stereo not drawn)
  A: 2.5 | B: -27.9 | C: 102.0 | D: 99.0

Nc1ccccc1OCCOCCOc1ccccc1N
  A: -1.0 | B: 0.4 | C: 99.0 | D: 101.0

CCOc1ccccc1NC(=O)CC#N
  A: -7.5 | B: x | C: 101.0 | D: 100.0

Cc1oc(-n2cccc2)c(C#N)c1C
  A: -2.8 | B: -16.6 | C: 103.0 | D: 103.0

Cc1ccc(C)c(C(=O)NCCc2ccccn2)c1
  A: 0.9 | B: -14.9 | C: 103.0 | D: 108.0

CC(Oc1ccccc1F)C(=O)NCCN1CCCCC1 (stereo not drawn)
  A: -10.1 | B: -24.3 | C: 102.0 | D: 102.0

O=C(NC1CCCCC1)C(c1cccs1)N(Cc1cccs1)C(=O)c1cccs1 (stereo not drawn)
  A: -3.7 | B: 21.5 | C: 100.0 | D: 101.0

O=C(O)C1CCCN1C(=O)C12CC3CC(CC(C3)C1)C2 (stereo not drawn)
  A: -12.3 | B: 9.0 | C: 101.0 | D: 101.0

CCOC(=O)c1nn(-c2ccc(C)cc2)c(=N)s1
  A: -4.8 | B: -44.3 | C: 100.0 | D: 102.0

CCN(C(=O)C1CCN(c2nc(-c3ccc(OC)cc3)no2)CC1)c1ccccc1
  A: -22.3 | B: 10.0 | C: 103.0 | D: 102.0

CCN(Cc1cc2ccccc2[nH]c1=O)C(=O)c1cccnc1
  A: 89.7 | B: -29.6 | C: 103.0 | D: 109.0

O=c1cc(-c2ccccc2)nc2scc(-c3ccccc3)n12
  A: -4.2 | B: -9.0 | C: 101.0 | D: 102.0

CCN1CCCC1CNC(=O)Cn1ncc2c3ccccc3n(Cc3ccccc3C)c2c1=O (stereo not drawn)
  A: 88.3 | B: -13.2 | C: 101.0 | D: 105.0

CC(C)(C)c1ccc(Cn2c(=O)n(Cc3ccc4c(c3)OCO4)c(=O)c3ccccc32)cc1
  A: 8.9 | B: -7.8 | C: 100.0 | D: 103.0

CC(=O)Nc1ccc(C(=O)OCc2cccc(F)c2)cc1
  A: 16.2 | B: -11.0 | C: 103.0 | D: 103.0

C=CCOc1ccc(/C=C2\C(=O)N(c3ccc(S(N)(=O)=O)cc3)N=C2C(F)(F)F)cc1OC
  A: -15.5 | B: -1.7 | C: 101.0 | D: 104.0

CCN(CC)c1ccc(/C=N/N=C(\N)c2nonc2N)cc1
  A: 3.9 | B: -292.7 | C: 105.0 | D: 106.0

N#CC1=C(N)OC2=C(C(=O)OC2)C1c1c(Cl)cccc1Cl (stereo not drawn)
  A: -34.1 | B: -41.3 | C: 101.0 | D: 105.0

CCC(C)C(=O)N1CCCC(c2nc(-c3cccs3)no2)C1 (stereo not drawn)
  A: 9.5 | B: -34.4 | C: 100.0 | D: 101.0

O=C(c1ccco1)N1CCN(CC(=O)N(C2CCCCC2)C2CCS(=O)(=O)C2)CC1 (stereo not drawn)
  A: -6.6 | B: -15.0 | C: 108.0 | D: 108.0

Fc1nc(F)c(F)c(Oc2c(F)c(F)c3c(F)c(F)c(F)c(F)c3c2F)c1F
  A: -5.7 | B: -15.1 | C: 103.0 | D: 104.0

O=C(/C=C/c1ccco1)OCc1cc(=O)n2c(n1)sc1ccccc12
  A: 28.2 | B: -25.2 | C: 103.0 | D: 106.0

O=C(NCCN1CCN(Cc2ccccc2)CC1)c1cc(=O)[nH]c2ccc(S(=O)(=O)N3CCCC3)cc12
  A: -8.8 | B: -23.2 | C: 101.0 | D: 102.0

Cc1cc(C)c(C#N)c(Cl)n1
  A: -1.9 | B: -31.8 | C: 101.0 | D: 102.0

COc1cc(C)cc(CN2CCN(S(=O)(=O)/C=C/c3ccccc3)CC2)c1O
  A: -15.1 | B: -15.8 | C: 104.0 | D: 107.0

Single values from the results shown:
`CCC(C)C(=O)N1CCCC(c2nc(-c3cccs3)no2)C1` (stereo not drawn) @ Polio RdRp inh = 100.0
`N#CC1=C(N)OC2=C(C(=O)OC2)C1c1c(Cl)cccc1Cl` (stereo not drawn) @ Polio RdRp inh = 101.0

(listing goes on)
Short keys – A = Mtb MbtI inh; B = Mtb MenB inh; C = Polio RdRp inh; D = Polio RdRp inh intensity
Cc1cc2ccccc2n1CC(=O)N(C)CCc1cn[nH]c1
  A: -14.4 | B: -20.0 | C: 95.0 | D: 107.0

CCOC(=O)c1cc(C#N)c(=S)[nH]c1-c1ccccc1
  A: 29.8 | B: -50.5 | C: 97.0 | D: 95.0

O=S(=O)(c1ccc(Cl)nc1)N1CCCCC1
  A: -7.2 | B: x | C: 102.0 | D: 101.0

COC(=O)C(C)Nc1cccc(Br)c1 (stereo not drawn)
  A: 9.9 | B: -13.3 | C: 99.0 | D: 101.0
